Screening results deposited in PubChem by several laboratories.
rRNA inh HTS: inhibits bacterial ribosomal RNA function over humanized ribosomes; GFP signal change (wild-type ribosome), % (concentration not given with the values); E. coli WT GFP vs humanized-ribosome RFP mutants, fluorescence, 24 h; active compounds read low; DMSO median 0, no signal -100; 350,000 compounds, 1.6% hits;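 active = significant combined selectivity score with lowered wild-type GFP, culture density cut under 30%, mutant RFP and density less affected; inactive = any of these conditions unmet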; note: one replicate is shown; some compounds called inactive have numbers as strong as hits
Ecoli growth: E. coli growth inhibition. Escherichia coli growth, OD600, 23 h; active compounds read low. OD600 absorbance (no concentration beside the values). 330,000 compounds, 0.21% hits. AID 1053175;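 active = OD600 absorbance below the run mean of sample wells minus 3.6 SD, in any replicate, cut at about 0.56 in these data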;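 note: stock transfer was 300 nL into about 60 µL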
ALR inh: inhibitors of human sulfhydryl oxidase ALR; P55789; purified ALR, DTT oxidation, H2O2 HRP-luminol luminescence; inhibition, % (no concentration beside the values); 290,000 compounds, 3.8% hits;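 active = mean and each replicate at 75% or more; inconclusive = only one of the two met; inactive = neither met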;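 note: stock transfer was 7.5 nL into about 7.5 µL; 0% = neutral wells and 100% = wells with inactivated enzyme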
Target sequence (P55789 whole entry, looked up): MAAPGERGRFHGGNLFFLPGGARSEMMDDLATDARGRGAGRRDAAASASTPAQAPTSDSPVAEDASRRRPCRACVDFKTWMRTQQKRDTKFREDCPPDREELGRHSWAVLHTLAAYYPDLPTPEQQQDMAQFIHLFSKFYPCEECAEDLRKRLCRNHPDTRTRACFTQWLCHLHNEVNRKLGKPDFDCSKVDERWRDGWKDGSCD
Vif A3G: inhibitors of Vif binding to APOBEC3G peptide, primary screen, biochemical, TR-FRET, GST-Vif 1-94, biotin-A3G peptide, dose response retest (AID 1117319) | TR-FRET GST-Vif / biotin-A3G peptide binding; higher % means a stronger effect; test concentration not given here; strong numbers were not always called active | inhibition, %, or IC50 in µM where a hit was titrated | 260,000 compounds, 0.57% hits;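 active = above the screen mean plus three standard deviations and confirmed in dose response; inconclusive = results disagree or hit not tested in dose response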;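 note: Vif residues 1-94 fused to GST binding biotinylated APOBEC3G peptide 110-148; 0% = full assay without inhibitor and 100% = GST in place of GST-Vif; retest series ran down from 100 µM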
FGF22 binding: shifts melting point of recombinant human FGF22. Q9HCT0. recombinant FGF22 thermal shift, SYPRO orange fluorescence; percent of sucrose octasulfate shift, DMSO zero. calls only at 9.99 µM. 340,000 compounds, 1.5% hits;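 active = melting point raised past a set limit in the mean and every replicate; inconclusive = no clear call; three in four hits are not shown here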
Target sequence (Q9HCT0 whole entry, looked up): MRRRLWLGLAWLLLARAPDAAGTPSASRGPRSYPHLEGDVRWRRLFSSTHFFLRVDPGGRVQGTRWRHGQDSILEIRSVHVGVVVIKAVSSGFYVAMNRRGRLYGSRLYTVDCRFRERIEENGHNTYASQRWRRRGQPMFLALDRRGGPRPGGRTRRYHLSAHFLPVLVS
HNF4A DNA FP: change in binding of human HNF4 alpha to DNA | HNF4a-FITC DNA binding, fluorescence polarization, 1 h | 360,000 compounds, 0.3% hits | AID 1224865 | P41235 | activity change, % at 10 µM; in the data active = activity change above about 30%, passing the limit was not always enough;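 note: controls were the assay level and a saturating level of protein; the project sought stronger binding though the title names inhibitors; some compounds called inactive have numbers as strong as hits; positive values seem to mean higher polarization but the record does not say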
AF4-AF9 inh: inhibitors of human MLL-AF4/AF9 interaction. P42568. AlphaScreen, biotin-AF4 peptide binding to FLAG-AF9. inhibition, % at 10 µM. 350,000 compounds, 0.47% hits. AID 651704;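 active = every replicate reaching a set inhibition limit, whatever the replicate mean, cut at about 25% in these data; inconclusive = mean inhibition reaches that limit but some replicates miss it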;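 note: 0% = plate neutral control median and 100% = total signal loss; the record names both 10 and 1 µM as test concentration; the first replicate is given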
Target sequence (P42568 whole entry, looked up): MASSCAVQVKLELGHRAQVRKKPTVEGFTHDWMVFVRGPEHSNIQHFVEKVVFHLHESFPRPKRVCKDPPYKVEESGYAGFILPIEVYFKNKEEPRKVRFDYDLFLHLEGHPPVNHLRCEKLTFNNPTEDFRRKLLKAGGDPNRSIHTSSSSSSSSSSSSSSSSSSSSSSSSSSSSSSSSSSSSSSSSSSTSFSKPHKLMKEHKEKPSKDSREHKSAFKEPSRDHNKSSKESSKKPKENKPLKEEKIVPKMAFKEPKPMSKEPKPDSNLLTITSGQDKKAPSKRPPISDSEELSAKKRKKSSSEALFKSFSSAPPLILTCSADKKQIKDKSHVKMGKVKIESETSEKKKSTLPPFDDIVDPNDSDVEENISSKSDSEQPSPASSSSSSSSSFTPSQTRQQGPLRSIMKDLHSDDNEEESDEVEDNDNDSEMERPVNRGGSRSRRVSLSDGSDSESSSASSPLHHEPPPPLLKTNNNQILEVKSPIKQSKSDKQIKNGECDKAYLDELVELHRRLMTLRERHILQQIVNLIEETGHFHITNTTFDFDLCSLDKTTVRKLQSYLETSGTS
rRNA inh HTS OD600: also measured in rRNA inh HTS; calls as there; OD600 change, %; measured here: OD600 growth;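 optical density of the mix in the first replicate; 0 = DMSO median and -100 = no signal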
rRNA inh HTS RFP: second read-out of rRNA inh HTS, no call of its own (marks repeat the call); RFP signal change, %; measured here: RFP humanized mutant strains;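 first replicate; 0 = DMSO median and -100 = no signal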
Starred values were filed as active, the others as inactive; i = inactive; ? = inconclusive; · = not tested or not shown; & = joins results of further samples. These rows are one share of the data. The share of hits here may be higher or lower than overall.

SMILES	rRNA inh HTS	rRNA inh HTS OD600	rRNA inh HTS RFP	Ecoli growth	ALR inh	Vif A3G	FGF22 binding	HNF4A DNA FP	AF4-AF9 inh
Cc1ccc(S(=O)(=O)CCC(=O)OCc2ccc(Cl)c(Cl)c2)cc1	2	1	-3.5	0.62	-2	·	i	-0.5	-0.2
CC1Cc2ccccc2N1C(=O)CSc1nc2ccccc2n1CC(=O)N1CCOCC1 (stereo not drawn)	·	·	·	0.67	0	0%&-1%	·	-1.6	·
O=C(Nc1ccc([N+](=O)[O-])cn1)c1cccnc1	2	11	0.2	0.67	·	·	i	0.4	-2.1
O=C(NCc1ccccc1Cl)c1csc([C@@H]2C[C@H](O)[C@@H](CO)O2)n1	3	5	-5.1	·	·	·	i	2.0	0.4
C=CCN(CC(=O)NCc1ccccc1)C(=O)c1csnn1	·	·	·	0.62	-5	0%	·	-5.8	·
Clc1ccc(-c2noc(CSc3nnc(Cc4cccs4)n3-c3ccccc3)n2)cc1	-13	-23	-1.5	0.72	-12	-1%	i	0.5	0.7
CCc1ncc(C)[nH]1	-2	-5	-2.7	·	-15	·	i	·	10
CCOC(=O)C(O)(CC(=O)c1ccc(Cl)cc1)C(=O)OCC	3	-8	-2.3	0.71	-6	-4%	i	1.0	-1.3
O=C1N(c2ccc3c(c2)OCCO3)C(c2ccccc2)C1(F)F (stereo not drawn)	-4	-7	-5.1	0.73	-5	16%	i	3.2	-0.5
CN1CCN(c2ccccc2NC(=O)c2ccc(-c3cccc([N+](=O)[O-])c3)o2)CC1	·	·	·	0.62	-14	·	·	2.2	·
COCC(=O)N1[C@@H]2CN(C(=O)Nc3cc(F)ccc3F)c3ccccc3[C@@H]2[C@@H]1CO	-53	-77	-15	·	·	·	i	·	-0.3
O=C(C[n+]1cc(-c2ccccc2)n2c1CCC2)N1c2ccccc2Sc2ccccc21	·	·	·	0.66	49	·	·	2.2	·
O=C(/C=C/c1ccccc1)CCN1CCOCC1	22	10	1.4	·	·	-1%	i	3.6	-5.5
CN1CCN(C(=O)C[C@H]2CC[C@H]3[C@@H](COC[C@H](O)CN3C(=O)Nc3ccc(F)cc3)O2)CC1	4	11	0.4	·	·	·	i	·	-0.7
CCC(=O)N(c1nnc(SCC(=O)NN2C(=O)NC3(CCC(C)CC3)C2=O)s1)C1CC1 (stereo not drawn)	·	·	·	0.68	-2	·	i	0.1	-0.5
C/C(=N\NC(=O)c1cccc(C)c1)c1ccc(N2CCOCC2)cc1	·	·	·	·	6	23%	·	-3.9	·
CC1(C(=O)NS(=O)(=O)c2cccc(C#N)c2)CCN1C(=O)C1CCCCC1 (stereo not drawn)	14	32	0.6	·	·	·	i	3.8	-2.0
Cc1cccc(NS(=O)(=O)c2cc(C(=O)OCC(=O)Nc3cc(C)on3)ccc2C)c1	·	·	·	0.72	·	-7%	·	1.7	·
O=C1Nc2cc(C(=O)N3CCc4ccccc4C3)ccc2S/C1=C\c1ccccc1	·	·	·	0.76	-1	·	·	3.4	·
CC(=O)Nc1ccc(C2=CC(=O)C[C@H](c3ccc(Cl)cc3)C2)cc1	-54	-83	-26	·	2	·	i	2.9	-0.1
O=C(c1cccc(S(=O)(=O)N2CCOCC2)c1)N(CCO)Cc1ccccc1	·	·	·	0.68	3	0%	·	-0.3	·
CO[C@H]1CN(C)C(=O)c2cc(NC(=O)c3ccc(-c4ccccc4)cc3)ccc2OC[C@@H](C)NC[C@H]1C	-3	-6	24	·	·	·	i	·	6.0
Cc1cccc(Nc2nnc(SCC(=O)NC3CCCc4ccccc43)s2)c1C (stereo not drawn)	-14	-13	26	0.65	-5	·	i	0.1	5.1
O=c1c2cccc3c2c(nn1-c1ccccc1)-c1ccccc1-3	·	·	·	0.74	2	-7%	·	-2.6	·
COCCn1c(=NC(=O)/C=C/c2ccccc2)sc2cc(NC(C)=O)ccc21	·	·	·	0.73	2	8%	·	6.8	·

Given with values under each structure: 2 of the compounds above.
The line under a structure holds: rRNA inh HTS	rRNA inh HTS OD600	rRNA inh HTS RFP	Ecoli growth	ALR inh	Vif A3G	FGF22 binding	HNF4A DNA FP	AF4-AF9 inh
- O=C(c1cccc(S(=O)(=O)N2CCOCC2)c1)N(CCO)Cc1ccccc1
    ·	·	·	0.68	3	0%	·	-0.3	·
- COCCn1c(=NC(=O)/C=C/c2ccccc2)sc2cc(NC(C)=O)ccc21
    ·	·	·	0.73	2	8%	·	6.8	·

(continued)
SMILES	rRNA inh HTS	rRNA inh HTS OD600	rRNA inh HTS RFP	Ecoli growth	ALR inh	Vif A3G	FGF22 binding	HNF4A DNA FP	AF4-AF9 inh
Cc1ccc(SC[C@H](c2ccccc2)N2CCN(CCc3ccccc3)CCC2=O)cc1	-19	-36	7.2	·	-15	·	i	-2.0	5.4
O=C(CC(NS(=O)(=O)c1ccc(Cl)cc1)c1ccco1)NCc1cccnc1 (stereo not drawn)	·	·	·	0.75	-3	-1%	·	0.6	·
CC(Oc1cccc(Br)c1)C(=O)NNC(=O)CCNC(=O)c1ccccc1Cl (stereo not drawn)	3	13	2.0	0.7	-2	-3%	i	3.7	1.0
Cc1cccc(N2CC(C(=O)Nc3nc4ccc(S(C)(=O)=O)cc4s3)CC2=O)c1C (stereo not drawn)	-4	-2	2.7	0.66	-4	-5%	i	0.3	-7.2
O=S(=O)(Nc1ccc(-c2nc3cccnc3s2)cc1)c1ccc(Cl)s1	-21	-48	-12	0.72	-3	-4%	i	-0.8	0.2
CCOc1ccc(CSCCNC(=S)Nc2ccc(OC)cc2)cc1	-17	-12	7.4	0.63	26	3%	i	-2.9	2.8
COc1ccccc1NC(=O)CN1CCN(c2ccc(F)cc2)CC1	18	39	5.8	·	·	-3%	i	2.6	-1.6
Cn1cc(S(=O)(=O)N2CCC3(CC2)OCCO3)c(=O)n(C)c1=O	7	5	2.0	0.79	-7	18%	i	3.3	12
CC1CCCN(CC(=O)Nc2cc(Cl)ccc2Oc2ccccc2)C1 (stereo not drawn)	·	·	·	0.62	·	3%	i	0.3	2.3
CCOc1ccccc1NC(=O)NC(=O)N(C)S(C)(=O)=O	-14	-13	5.2	0.65	-8	·	i	-4.3	-11
O=C(C[C@H]1CC[C@H]2[C@@H](COC[C@@H](O)CN2Cc2ccc3c(c2)OCO3)O1)N1CCOCC1	-1	2	-4.5	·	·	·	i	·	-0.9
COC(c1ccccc1)c1nnc(CCC(=O)N2CCN(C3CCCC3)CC2)o1 (stereo not drawn)	5	15	1.9	0.7	1	·	i	0.8	-0.9
N#Cc1cccnc1N1CCN(C(=O)c2cccc3c2C(=O)c2ccc(-c4ccc(Cl)c(C(F)(F)F)c4)cc2S3(=O)=O)CC1	·	·	·	0.71	2	·	·	0.1	·
CN1C(=O)c2cc(NC(=O)c3cccs3)ccc2OC[C@H]2O[C@H](CC(=O)NCC(F)(F)F)CC[C@H]21	-1	0	0.4	·	·	·	i	·	-1.0
Cc1cccc(C)c1NC(=O)CN1CCN(C(=O)CCC(=O)N2CCC(c3ccccc3)=N2)CC1	5	8	-1.5	·	·	·	i	-2.4	-0.7
NC(=O)COc1ccccc1C(=O)NC12CC3CC(CC(C3)C1)C2	7	11	-2.3	0.66	0	2%	i	0.6	-4.1
N#Cc1c(/N=C\c2ccc(O)c([N+](=O)[O-])c2)sc2c1CCCC2	5	-1	-0.4	·	?	4%	i	5.0	3.0
CC(=O)Oc1ccc(N(C(C)=O)S(=O)(=O)c2cc([N+](=O)[O-])ccc2C)cc1	·	·	·	0.69	-2	·	·	-0.2	·
O=C1CCCN2N=C(SCC(=O)Nc3cccc(C(F)(F)F)c3)SC2=N1	5	5	-1.5	0.71	·	·	i	3.0	-3.1
CC(C)C(c1nnnn1Cc1ccc(F)cc1)N1CCN(C2CCCCC2)CC1 (stereo not drawn)	·	·	·	0.72	·	22%	·	-1.5	·
CCNC(=O)[C@H]1[C@H](CO)[C@H]2Cn3c(ccc(-c4ccc(F)cc4)c3=O)[C@H]2N1CC1CC1	-3	-4	-1.1	·	·	·	i	·	1.4
O=c1nc2n(CCO)c3ccccc3cc-2c(=O)[nH]1	14	12	-0.4	·	·	-11%	i	-1.0	-0.1
CCOc1ccc(C(=O)NC2CCN(C(=O)NCc3ccccc3)CC2)cc1	·	·	·	0.66	-2	-4%	·	3.7	·
O=C(c1ccc(F)cc1)C1CCN(Cc2ccccc2)CC1	8	7	0.5	0.67	·	-1%	i	0.5	1.0
CC(=O)N1c2ccc(S(=O)(=O)N(C)c3cc(C)ccc3C)cc2CC1C (stereo not drawn)	-29*	-20*	1.7*	0.65	-11	-5%	i	-0.8	3.9

The results go on:
SMILES	rRNA inh HTS	rRNA inh HTS OD600	rRNA inh HTS RFP	Ecoli growth	ALR inh	Vif A3G	FGF22 binding	HNF4A DNA FP	AF4-AF9 inh
C[C@@H]1CN([C@H](C)CO)C(=O)c2cccc(NC(=O)Nc3ccc4c(c3)OCO4)c2O[C@H]1CN(C)CC1CC1	-2	-4	2.3	·	·	·	i	·	4.3
CC1(C)CC(=O)c2sc(NS(=O)(=O)Cc3ccccc3)nc2C1	·	·	·	0.69	·	-1%	·	0.6	·
CCCOC(=O)c1ccc(Oc2c(-c3ccc(OCC)cc3O)n[nH]c2C)cc1	·	·	·	0.67	1	3%	·	1.8	·
COc1ccc(C)cc1NC(=O)CN1CCN(S(=O)(=O)c2ccc(Br)cc2)CC1	·	·	·	0.74	·	-9%	·	4.3	·
Cc1cc(NC(=O)c2cc(F)c(F)cc2Cl)no1	10	15	-1.2	0.69	-3	?	i	0.6	0.5
Cc1ccc(NC(=O)CCN2C(=O)NC3(CCCC3)C2=O)c(C)c1	6	9	0.7	0.67	·	4%	i	-1.0	-1.1
CCNc1nc(-c2ccc(OC(F)F)cc2)c(C)s1	6	-7	4.8	0.67	·	·	i	-3.2	3.8
O=[N+]([O-])c1ccc(Sc2ncccn2)c([N+](=O)[O-])c1	·	·	·	0.65	·	15%	i	0.6	3.7
Cc1onc(-c2ccccc2Cl)c1C(=O)Nc1c(C)n(C)n(-c2ccccc2)c1=O	·	·	·	0.73	2	-3%	·	-3.4	·
CCNC(=O)[C@@H]1[C@@H](CO)[C@@H]2Cn3c(ccc(-c4ccccc4F)c3=O)[C@H]1N2CCC(F)(F)F	3	7	-1.1	·	·	·	i	·	-1.8
COc1cc(C(=O)CSc2nccn2C)cc(OC)c1OC	6	6	1.5	0.71	22	-5%	i	-2.7	-5.6
C[C@@H]1CN([C@H](C)CO)S(=O)(=O)c2ccc(C#Cc3ccc(F)cc3)cc2O[C@H]1CN(C)C(=O)NC1CCCCC1	-1	1	-3.2	·	·	·	i	·	-0.4
O=C(NCCCN1CCOCC1)c1cc2ccccc2o1	·	·	·	0.63	-4	-1%	·	0.2	·
CCn1c(O)c(/C=N/N=C2CCCCC2)c2cc(C3=NNC(=O)CC3)ccc21	8	4	16	·	64	·	i	12	-2.4
CC(C)(C)c1ccc(CC(=O)N2CCC2(C)C(=O)NS(=O)(=O)c2cccc(Cl)c2)cc1 (stereo not drawn)	-33*	-22*	-5.7*	·	·	·	i	-1.5	2.3
CO[C@H]1CN(C)C(=O)c2ccc(NC(=O)Nc3c(C)noc3C)cc2OC[C@@H](C)N(C)C[C@@H]1C	2	3	-2.7	·	·	·	i	·	-2.5
CC(=O)CCc1ccccc1	10	0	-8.1	0.77	·	·	i	2.3	-2.1
COc1ccc(C(C)(C)C)cc1NC(=O)COC(=O)c1cnc(C)cn1	1	-2	-5.1	0.68	7	-9%	i	2.0	-55
Cc1cc(N2C(=O)C3C4C=CC(C4)C3C2=O)ccc1NC(=O)c1cccs1 (stereo not drawn)	·	·	·	0.7	-7	2%	·	-3.6	·
